StopGo RLuc: Primary qHTS Assay for Foot and Mouth Disease Virus Antivirals against NCGC Sytravon and CBC Compound Libraries: Renilla Luciferase Signal; HEK cells with a luciferase reporter of 2A StopGo recoding; Potency, µM (highest dose often 57.5 µM), for inactives: at the highest dose signal change, negative = less light; actives 0.32% (n = 120,000); active means well fitted falling curve with a large enough effect; inconclusive means small, poorly fitted or top-dose-only effect; inactive means no such curve, though single readings can be large or run the other way; further: nearly all actives have a fitted effect of over 55% in size; overnight with compound
2A firefly: Primary qHTS Assay for Foot and Mouth Disease Virus Antivirals against NCGC Sytravon and CBC Compound Libraries: Firefly Luciferase Signal | HEK cells with a luciferase reporter of 2A StopGo recoding | Potency, µM (doses to about 57.5 µM), for the others: at the highest dose signal change, negative = less light | actives 0.23% (n = 120,000) | AID 1745856, 2022; active = well fitted falling curve with a large enough effect; inconclusive = small, poorly fitted or top-dose-only effect; inactive = no such curve, though single readings can be large or run the other way; further: nearly all actives have a fitted effect of over 60% in size; overnight with compound
An asterisk follows results filed as active; ? = inconclusive; & = joins results of further samples; [ ] = remark or other dose. On the % scale 0 is the no-effect control and ±100 the full control effect; potency means the concentration at half of the fitted maximal effect.

structure,StopGo RLuc,2A firefly
CC(C)C(=O)Nc1ccc(OCC(F)(F)F)c(C#N)c1,9%,14%
COc1cccc(-c2nc(CS(=O)(=O)CC(=O)NCc3cccc(Cl)c3)c(C)o2)c1,14%&-8%,1%&-16%
Cc1nc2cc(NC(C)C(=O)Nc3ccc(F)cc3F)ccc2o1 (stereo not given),29%,17%
CCC(=O)Nc1cccc(-c2cn3c(C)csc3n2)c1,17%,45%[activator]
CCOc1ccc(C(=O)Nc2cnc3ccccc3c2)cc1OC,9%,235%[activator]
CN(CCO)C(C(=O)Nc1ccc(F)cc1)c1ccccc1 (stereo not given),22%,25%
CCc1ccccc1N(C(C)=O)c1nc(COc2ccccc2C(N)=O)cs1,2%,-2%
COc1ccccc1NC(=O)C1=C(C)Nc2nc(SCc3cccc(F)c3)nn2C1c1ccc(C(=O)O)cc1 (stereo not given),-13%,-14%
CC1=C(C(=O)N2CCOCC2)C(c2cccc(F)c2)NC(=O)N1Cc1ccccc1 (stereo not given),6%,-10%
COc1ccc(OC)c(C(=O)NCC2(c3ccc(F)cc3)CCOCC2)c1,-5%,-9%

Continued.
structure,StopGo RLuc,2A firefly
Cc1nnc(NC(=O)C2CC(c3ccccc3)=NO2)s1 (stereo not given),0%,13%
CCOc1ccc(-c2nc(CNC(=O)Nc3ccccc3OCC)c(C)o2)cc1,1%,0%
COc1cc2[nH]c(=O)n(CCCC(=O)NCc3ccccc3)c(=O)c2cc1OC,-9%,-10%
COc1ccc(C2c3c(n(C)c4ccccc34)C(=O)N2CC(=O)Nc2cccc(F)c2)cc1 (stereo not given),14%,?
O=C1CC(=O)Nc2cc(S(=O)(=O)N3CCOc4ccccc43)ccc2N1,-12%,-18%
O=C(CSc1ccc(F)cc1)NCCCSc1ccccc1,11%,0%
CC1CCN(S(=O)(=O)c2cn(CC(=O)Nc3ccc(F)c(Cl)c3)c(=O)c3ccccc23)CC1,76%[activator],-6%
CC(=O)c1ccc(NS(=O)(=O)c2cc(-c3nc(-c4ccc(Cl)cc4)no3)sc2C)cc1,6%,13%
Cc1ccc(C(=O)NC2(C(F)(F)F)C(=O)Nc3c2c(=O)[nH]c(=O)n3CCc2ccccc2)cc1 (stereo not given),-5%,4%
CCC(CC)C(=O)Nc1cc(-c2cccc(C)c2)nn1-c1ccccc1,34%[activator],-9%

(cont.)
structure,StopGo RLuc,2A firefly
CCC1=C[C@@H]2CN(C1)Cc1c([nH]c3ccccc13)[C@@](C(=O)OC)(c1cc3c(cc1OC)N(C)[C@H]1[C@@](O)(C(=O)OC)[C@H](OC(C)=O)[C@]4(CC)C=CCN5CC[C@]31[C@@H]54)C2,?,0%[11.5 µM]
Cc1cc(C)c(S(=O)(=O)NCC(=O)O)c(C)c1,12%,3%
Cc1cccc(CN2C(=O)c3ccccc3S(=O)(=O)c3ccc(C(=O)OCC4CCCO4)cc32)c1 (stereo not given),12%,3%
CCOC(=O)c1c(C)[nH]c(C)c1S(=O)(=O)NCC(=O)Nc1cccc(C#N)c1,0%,16%
CCOC(=O)CN1CCN(c2nc3c(c(=O)[nH]c(=O)n3C)n2CC)CC1,-3%,-1%
Cc1sc(NC2CCCCC2)nc1-c1ccc(NS(C)(=O)=O)cc1,?,?
CNS(=O)(=O)c1ccc(-c2nc(-c3ccccc3OC(C)C)no2)o1,69%[activator],8%
COc1ccc(-c2c(C)c3ccc(OC(=O)c4ccco4)cc3oc2=O)cc1,45%[activator],97%[activator]
COCc1cc(C)nc2sc3c(c12)NC(c1ccc(O)cc1)N(c1ccc(OC)cc1)C3=O (stereo not given),-7%,13%
Cc1c(-c2nc(-c3ccc4c(c3)OCO4)no2)nnn1-c1ccc(C(C)C)cc1,0%,23%

More compounds.
structure,StopGo RLuc,2A firefly
COc1ccc(Cn2c(=O)c3ccccc3n3c(-c4ccc(C)cc4)nnc23)cc1,2%,-9%
Cc1ccccc1CNC(=O)CSc1nnc(C)c2c(C)n(-c3ccccc3)nc12,7%,0%
Cc1ccc2c(=O)cc(C(=O)Nc3nnc(C(C)C)s3)oc2c1,-6%,0%
COc1ccc(S(=O)(=O)N2CCN(Cc3nc4ccc(C)cc4o3)CC2)cc1Cl,11%,-9%
CC(=O)N1C=Cc2ccccc2C1CC(=O)Nc1cccc(S(=O)(=O)N2CCCCCC2)c1 (stereo not given),10%,?
CCOc1ccccc1CNC(=O)c1ccc2c(c1)N(CC)CCS2,-13%,-15%
CCn1cnc2c1c(=O)n(CC(=O)c1cc(C)n(CC3CCCO3)c1C)c(=O)n2Cc1ccccc1 (stereo not given),39%[activator],163%[activator]
Cc1ccc(-c2cc(C(=O)O)c3ccc(Br)cc3n2)o1,-2%,24%
COc1nc(C(=O)N2CCN(C(=O)N(C)C)CC2)cc2ccccc12,88%[activator],104%[activator]
COc1ccc(C(=O)Nc2nc3c(s2)Cc2cc(OC)ccc2-3)cc1,-9%,-4%

Next part.
structure,StopGo RLuc,2A firefly
CCCC(=O)OCOC(=O)C1=C(C)NC(C)=C(C(=O)OC)C1c1cccc(Cl)c1Cl (stereo not given),1%,-3%[11.5 µM]
COc1ccc(NC(=O)Cn2c(=O)c3cccn3c3ccccc32)cc1OC,-20%,-18%
Cc1ccc(CC(=O)N(CC#N)c2ccccc2)s1,1%,4%
CC(C)c1cc(C(=O)NOCc2ccccc2)c2ccccc2n1,0%,25%
COc1ccc(Cl)cc1NC(=O)CC1Nc2ccccc2NC1=O (stereo not given),70%[activator],34%[activator]
COc1ccc(OCC(=O)NCc2nc(-c3ccc(OC)cc3)no2)cc1,-15%,-3%
CCCc1nc2ccccc2n1CC(O)c1ccccc1 (stereo not given),25%,24%
CC(CCO)Nc1nc2c(c(=O)n(C)c(=O)n2C)n1Cc1ccc(F)cc1 (stereo not given),-9%,1%
CCCc1noc(C(C)Sc2n[nH]c(-c3ccccc3F)n2)n1 (stereo not given),26%,93%[activator]
Cc1ccccc1-c1nnc(CN2CCN(c3cccc(C)c3C)CC2)o1,15%,-2%

The list continues.
structure,StopGo RLuc,2A firefly
COc1ccccc1CNc1nc(NCc2ccccc2OC)n(S(=O)(=O)c2ccccc2)n1,124%[activator],-5%
CC(=O)NC(NC(=S)Nc1cccc(C)c1)C(Cl)(Cl)Cl (stereo not given),18%,12%
CCCCN(C)CCCNC(=O)Cn1nc(CC)n2c(cc3sc(C)cc32)c1=O,-19%,-15%
CCCc1ccc(/C=C/c2ccccc2)nc1,15%,0%
COc1ccc(NC(=O)c2cnc(SC)nc2C(F)(F)F)c(OC)c1,18%,22%
CC1=C(C(N)=O)C(c2cccc(Br)c2)n2nc(SCc3ccccc3)nc2N1 (stereo not given),-3%,-3%
Cc1ccc(C(=O)c2sc(NCc3ccccc3)nc2N)cc1,-14%,50%[activator]
Cc1ccc(-c2cc(C(=O)O)c3ccccc3n2)cc1C,13%&21%,139%&71%[activator]
COc1ccc(N2C(=O)CCS2(=O)=O)cc1S(=O)(=O)Nc1c(C)cc(C)cc1Cl,99%[activator],12%
Cc1ccc(-c2nn(C)c(=O)c3ccccc23)cc1S(=O)(=O)N1CCCCC1,39%[activator],0%

(continued)
structure,StopGo RLuc,2A firefly
COc1ccc(OCCOC(=O)c2cc(=O)c3cc(Cl)ccc3o2)cc1,-10%,-5%
Cc1ccc(NC(=O)COc2ccc(-c3nn(C)c(=O)c4ccccc34)cc2)cc1,?,?
CCCCOc1ccc(C(=O)NCC2(N3CCN(C)CC3)CCCCC2)cc1,-7%,-11%
CCCN1CCC(NC(=O)CC23CC4CC(CC(C4)C2)C3)CC1,7%,-4%
Cc1ccc(OCC(=O)OCc2cc(=O)n3nc(C4CCCCC4)sc3n2)cc1,-13%,-6%
Cc1cccc(C)c1OCC(=O)N1CCC(c2nc3ccccc3o2)CC1,-17%&-1%,-23%&-16%
Cc1ccc(S(=O)(=O)NCC(Nc2cccc(Cl)c2)c2ccccc2)cc1 (stereo not given),50%&-2%[activator],?
COc1ccc(C(=O)Nc2ccnn2Cc2cccs2)cc1S(=O)(=O)N(C)Cc1ccccc1,38%[activator],-6%
CNC(c1ccccc1)c1ccc(F)cc1 (stereo not given),-15%,-12%
Cc1ccc(S(=O)(=O)CCC(=O)N2CCN(c3nc4c(C)c(C)ccc4s3)CC2)cc1,-10%&-12%,-1%&26%

Among those listed so far, these contain an aryl thioether with sulfur outside any ring.
structure,StopGo RLuc,2A firefly
COc1ccccc1NC(=O)C1=C(C)Nc2nc(SCc3cccc(F)c3)nn2C1c1ccc(C(=O)O)cc1 (stereo not given),-13%,-14%
O=C(CSc1ccc(F)cc1)NCCCSc1ccccc1,11%,0%
Cc1ccccc1CNC(=O)CSc1nnc(C)c2c(C)n(-c3ccccc3)nc12,7%,0%
CCCc1noc(C(C)Sc2n[nH]c(-c3ccccc3F)n2)n1 (stereo not given),26%,93%[activator]
COc1ccc(NC(=O)c2cnc(SC)nc2C(F)(F)F)c(OC)c1,18%,22%
CC1=C(C(N)=O)C(c2cccc(Br)c2)n2nc(SCc3ccccc3)nc2N1 (stereo not given),-3%,-3%

Following part
structure,StopGo RLuc,2A firefly
COCCCNC(=O)c1ccc(Cn2c(SCc3cccc(C)c3)nc3cccnc32)cc1,6%,38%[activator]
CC(NC(=O)CCc1ncc(-c2ccccc2)o1)c1ccc2c(c1)NC(=O)CO2 (stereo not given),-2%,-4%
CCC(=O)Nc1ccc2nc(SCC(=O)N3CCc4ccccc43)sc2c1,38%[activator],1%
COc1ccc(CNC(=O)c2nn(-c3ccccc3C)c(=O)cc2OC)cc1,-2%,-2%
O=C(CCS(=O)(=O)c1cc2c3c(c1)CCN3C(=O)CC2)Nc1cccc(Br)c1,-1%,-16%
Cc1ccc(NC(=O)C(=O)c2cn(CC(=O)N3CCOCC3)c3ccccc23)cc1F,-11%,27%
COc1ccc(OC)c(CNS(=O)(=O)c2c(C(=O)N3CCC(C)CC3)c(C)n(C)c2C)c1,76%[activator],-14%
COc1ccccc1N1CCN(C(=O)c2ccc(CS(=O)c3ccccc3C)o2)CC1 (stereo not given),25%,20%
Cc1ccc(S(=O)(=O)CC(=O)c2cccc(Cl)c2)cc1,108%[activator],82%[activator]
CC(=O)N1c2ccc(S(=O)(=O)N(C)CC(=O)N(Cc3ccccc3)C(C)C)cc2CC1C (stereo not given),9%,-5%

More structures follow:
structure,StopGo RLuc,2A firefly
COc1ccccc1/C=C(/C#N)C(=O)Nc1ccccc1C(=O)O,18%,298%[activator]
COc1ccc(-c2cc(C(F)(F)F)nc(SCC(=O)NCc3ccc(OC)c(OC)c3)n2)cc1,-10%,-20%
COC(=O)c1ccccc1NC(=O)c1cc2c(-c3ccc(OC)c(OC)c3)nn(C)c2s1,0%,-14%
Cc1ccc2[nH]c(=O)c3cc(C(=O)N4CCN(c5ccccc5)CC4)sc3c2c1,-5%,17%
O=C(NC1CC(=O)N(c2ccc3c(c2)OCCO3)C1)c1c(F)cccc1Cl (stereo not given),-7%,-7%
N#Cc1c(-c2ccccc2)cc(-c2ccccc2)nc1SCCS(=O)Cc1ccccc1 (stereo not given),17%,-6%
O=C(NCc1ccccc1OC(F)(F)F)C1CCN(S(=O)(=O)/C=C/c2ccccc2)CC1,4%,-9%
Cc1cc(Br)ccc1NC(=O)CN(C)C(=O)Cc1csc(-c2ccc(F)cc2)n1,-11%,-14%
CC(C)(C)OC(=O)N1CCN(C(C(=O)O)c2c[nH]c3cc(NC(=O)c4ccccc4)ccc23)CC1 (stereo not given),9%,?
CCOc1ccccc1N1CCN(S(=O)(=O)c2ccc(C3CCCCC3)cc2)CC1,-1%,-21%

(listing goes on)
structure,StopGo RLuc,2A firefly
Cc1ccccc1C1NC(=O)c2c(sc3c2CCN(Cc2ccccc2)C3)N1 (stereo not given),5%,10%
COc1ccccc1NC(=O)CC(c1cc(OC)c(OC)c(OC)c1)N1Cc2ccccc2C1=O (stereo not given),285%[activator],26%
Cc1ccc(C(=O)/C(=C\c2ccc(Cl)c(Cl)c2)c2nc3ccccc3o2)cc1,12%,?
O=C(CCc1ccccc1)N1CCc2c([nH]c3ccccc23)C1c1ccc(F)cc1 (stereo not given),?,?
Cc1ccc(CSc2ncc(Cl)c(C(=O)Nc3sc4c(c3C(N)=O)CCCC4)n2)cc1,8%,-2%
CNC(=O)CNC(=O)c1cc2ccccc2oc1=O,-6%,42%[activator]
COc1ccc(-c2nnc(SCC(=O)Nc3ccc(F)cc3)s2)cc1,-5%,40%[activator]
CC(=O)NC(C(=O)NCc1ccccc1)C1CCCC1 (stereo not given),-18%,7%
CCOC(=O)c1ccc(CN(Cc2ccc(Br)cc2)S(=O)(=O)c2cccc(C(F)(F)F)c2)cc1,-16%,-14%
CC(C)(C)OC(=O)N1CCC(c2c(C(=O)NCc3ccco3)cnn2-c2ccccc2)CC1,0%,-13%
O=C(O)C(=O)N1CCOCC1,-8%,14%
O=C(/C=C/c1cccc(F)c1)NNC(=O)C1CCCCC1,51%[activator],24%
O=C(CSc1nccn1Cc1ccc(F)cc1)NC1CCCC1,3%,1%

Assay outcomes (PubChem)

Some of the compounds tested, so the mix of outcomes need not match the whole.
